MARV entry inh: blocks Marburg virus binding to or entry into cells. AID 540276. Potency, µM (doses to about 37.8 µM), inactives show at the top dose activity change, negative = inhibition, usual class: inhibitors. hit rate 1.8% among 300,000. Marburg virus pseudotyped entry inhibition, cell reporter; control for the full effect not named in the record; about a third of the inactives were read at about 46 µM; active = well fitted inhibition curve with a large enough effect; inconclusive = small, poorly fitted or top-dose-only effect, or effect the other way; inactive = flat fitted curve, though single readings scatter; tested in HEK293 cells; about a fifth of its hits are not listed in these tables; note: % is set by controls: 0 for no effect and ±100 for the full control effect; luciferase read-out
Cruzain Triton: inhibitors of Trypanosoma cruzi cruzain with detergent; Potency, µM, inactives show max response, negative = inhibition, hits mostly inhibitors; P25779; hit rate 0.43% among 200,000; purified cruzain, Z-FR-AMC fluorescence, 0.01% Triton; active = well fitted curve in the direction sought with a large enough effect; inconclusive = small, poorly fitted or top-dose-only effect, or another doubt; inactive = no such curve, though single readings can be large; an effect the other way counts as inactive or inconclusive;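 note: plate controls were neutral wells for no effect and buffer without enzyme for full effect; nearly all actives have a fitted effect of over 40% in size; top concentration of the series not given in the record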
Target sequence (P25779 123-467 limits assumed): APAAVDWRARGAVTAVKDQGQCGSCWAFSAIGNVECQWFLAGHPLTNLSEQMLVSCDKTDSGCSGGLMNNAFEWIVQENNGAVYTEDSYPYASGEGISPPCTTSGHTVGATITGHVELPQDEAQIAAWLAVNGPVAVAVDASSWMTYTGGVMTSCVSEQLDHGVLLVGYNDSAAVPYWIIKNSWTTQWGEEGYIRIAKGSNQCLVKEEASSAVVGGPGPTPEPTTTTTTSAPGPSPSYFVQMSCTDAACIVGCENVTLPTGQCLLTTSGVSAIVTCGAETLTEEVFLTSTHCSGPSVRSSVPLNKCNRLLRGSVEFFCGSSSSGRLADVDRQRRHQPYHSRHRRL
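Compounds were screened in titration against cruzain (1.5 nM) with 0.01% Triton X-100 to counter colloidal aggregation. Activity was the AMC fluorescence increase over 60 s after adding 2 uM Z-FR-AMC at pH 5.5.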
RE007 growth inh: less growth of the S. pombe RE007 Vpr strain; Potency, µM (titrated, usually from 92.2 µM), for the others: at the highest dose activity change, negative = less growth; S. pombe RE007 Vpr strain, BacTiter-Glo ATP luminescence, 24 h; control for the full effect not named in the record; AID 651644; hit rate 0.21% among 360,000; active = well fitted falling curve with a large enough effect; inconclusive = small, poorly fitted or top-dose-only effect; inactive = no such curve, though single readings can be large or run the other way;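 note: % is set by controls: 0 for no effect and ±100 for the full control effect; nearly all actives have a fitted effect of over 50% in size; the assay follows cell death caused by Vpr and the record does not say whether a fall means rescue or toxicity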
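Fission yeast RE007 carrying one integrated HIV-1 vpr copy, seeded at OD 0.01 in PMG+AL medium with 23 nL pinned compound. Grown 24 h at 30 degrees; viability read by BacTiter-Glo luminescence after 5 min.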
LASV entry inh: blocks Lassa virus binding to or entry into cells; Lassa virus pseudotype entry inhibition, cell reporter; control for the full effect not named in the record; Potency, µM (highest dose often 37.9 µM), for the others: at the highest dose activity change, negative = inhibition, hits mostly inhibitors; hit rate 1.2% among 300,000; active means well fitted inhibition curve with a large enough effect; inconclusive means small, poorly fitted or top-dose-only effect, or effect the other way; inactive means flat fitted curve, though single readings scatter; tested in HEK293 cells; note: % is set by controls: 0 for no effect and ±100 for the full control effect; nearly all actives have a fitted effect of over 50% in size; luciferase read-out
StopGo reporter: lowers the luciferase signal of an FMDV 2A StopGo reporter. human cells with a luciferase reporter of 2A StopGo recoding; control for the full effect not named in the record. Potency, µM (series often up to 57.9 µM), inactives show at the highest dose signal change, negative = less light. hit rate 1.2% among 410,000. AID 1159524; active = well fitted falling curve with a large enough effect; inconclusive = small, poorly fitted or top-dose-only effect; inactive = no such curve, though single readings can be large or run the other way; tested in HEK293T cells; note: % is set by controls: 0 for no effect and ±100 for the full control effect; nearly all actives have a fitted effect of over 45% in size; luciferase light after 4 h
Cruzain inh noDet: cruzain (T. cruzi) inhibition without detergent | P25779 | purified cruzain, Z-FR-AMC fluorescence, no detergent | Potency, µM, inactives show max response, negative = inhibition, actives largely listed as inhibitors | hit rate 2.3% among 200,000 | AID 1476; active = well fitted curve in the direction sought with a large enough effect; inconclusive = small, poorly fitted or top-dose-only effect, or another doubt; inactive = no such curve, though single readings can be large; an effect the other way counts as inactive or inconclusive;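 note: plate controls were enzyme without inhibitor for no effect and buffer without enzyme for full effect; nearly all actives have a fitted effect of over 40% in size; top concentration of the series not given in the record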
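Purified cruzain at 1.5 nM, pre-incubated 15 min with compound at room temperature in 100 mM sodium acetate pH 5.5, 5 mM DTT, 0.00005% Triton X-100. Reaction started with 2 uM Z-FR-AMC; AMC fluorescence increase over 60 s gives rate.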
SARS PLP yeast: inhibitors of SARS-CoV papain-like protease in yeast; S. cerevisiae expressing SARS-CoV PLpro, growth rescue; control for the full effect not named in the record; Potency, µM (doses to about 32.9 µM), for inactives: at the highest dose activity, positive = growth rescue; hit rate 0.19% among 330,000; AID 485353; note: 0% is about no effect; nearly all actives have a fitted effect of over 55% in size; growth read by luminescence after 48 h
NS1 function inh: inhibitors of influenza NS1 protein function; S. cerevisiae slowed by influenza A NS1, growth recovery by OD600; Potency, µM (titrated, usually from 46.1 µM), for the others: top-dose activity, positive = more growth; hit rate 0.4% among 270,000; AID 2326; note: actives are rising curves; nearly all actives have a fitted effect of over 50% in size
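In this qHTS, NS1 from influenza A is expressed in budding yeast, where it slows growth. Cells are switched from glucose to 2% galactose medium (pH 6.0, -URA), treated with compound, and growth recovery is read at OD600.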
* = called active by the depositor; ? = inconclusive; . = no result given; & = joins results of further samples; [ ] = remark or other dose. Unless noted, calls come from the whole dose curve; as a rule, active means well fitted rising curve with a large enough effect; inconclusive means small, poorly fitted or top-dose-only effect; inactive means no such curve, though single readings can be large or run the other way. Potency is the fitted concentration of half-maximal effect.

SMILES	MARV entry inh	Cruzain Triton	RE007 growth inh	LASV entry inh	StopGo reporter	Cruzain inh noDet	SARS PLP yeast	NS1 function inh
COc1cccc(CN2CCN(C(=O)c3ccco3)CC2)c1OC	-21.4%	.	16.5%	-13.8%	2.5%	.	.	8.3%
CCCN(CCC)CC(O)Cn1cc(/C=C/C(=O)c2ccc(OC)cc2)c2ccccc21 (stereo not drawn)	?	-12.2%	.	?	-14.4%	2.1%	.	.
O=C(c1ccc(F)cc1)c1ccc(CN2C(=O)c3ccccc3C2=O)o1	-0.9%[46.1 µM]	.	1.9%	0.4%	-4.6%	.	0.2%	-14.8%
COC(=O)c1c(-c2cccc3ccccc23)csc1NC(=O)Cc1ccc(OC)c(OC)c1	?	0.6%	6.4%	11.2µM*	?	?	-3.5%	3.3%
N#Cc1cc2c(nc1SCC(=O)Nc1sc3c(c1C#N)CCC3)CCC2	17.4%	-1.5%	7.1%	?	30.3%[activator]	?	8.7%	14.5%
CC(=O)Nc1ccc(S(=O)(=O)N2CCN(C34CC5CC(CC(C5)C3)C4)CC2)cc1	-0.3%	3.0%	-3.1%	10.1%	-26.9%	11.3%	-0.5%	-2.0%
CC(/C=N\N1CCN(Cc2ccc(C)cc2)CC1)=C\c1ccccc1	?	-5.9%	1.3%	4.6%	?	5.4%	-34.8%	-9.4%
Cc1oc(-c2ccccc2)cc1C(=O)Nc1cccc(C(=O)O)c1	-1.4%	-5.5%	-0.2%	0.0%	45.3%[activator]	-10.4%	-3.8%	-9.7%
Cc1ccc(NC(=O)C2CCN(C(=O)c3ccc(Cl)cc3)CC2)nc1	-21.8%	.	-24.3%	-21.5%	-27.3%	.	-0.6%	.
c1ccc(OCc2nn3c(Cn4nnc5ccccc54)nnc3s2)cc1	-12.2%	-3.2%	25.0%	-2.4%	-2.3%	-5.5%	-1.8%	-154.0%

Complete entries, quoted from the list. Screens in order: MARV entry inh	Cruzain Triton	RE007 growth inh	LASV entry inh	StopGo reporter	Cruzain inh noDet	SARS PLP yeast	NS1 function inh
`Cc1oc(-c2ccccc2)cc1C(=O)Nc1cccc(C(=O)O)c1` is entered as -1.4%	-5.5%	-0.2%	0.0%	45.3%[activator]	-10.4%	-3.8%	-9.7%
`O=C(c1ccc(F)cc1)c1ccc(CN2C(=O)c3ccccc3C2=O)o1` is entered as -0.9%[46.1 µM]	.	1.9%	0.4%	-4.6%	.	0.2%	-14.8%
`CC(/C=N\N1CCN(Cc2ccc(C)cc2)CC1)=C\c1ccccc1` is entered as ?	-5.9%	1.3%	4.6%	?	5.4%	-34.8%	-9.4%

The list goes on.
SMILES	MARV entry inh	Cruzain Triton	RE007 growth inh	LASV entry inh	StopGo reporter	Cruzain inh noDet	SARS PLP yeast	NS1 function inh
CSC1=NC(C)(C)C=C(/C=C/c2c(Cl)cccc2Cl)N1	-27.1%[46.1 µM]	.	-10.6%	-0.9%	-7.5%	.	-2.1%	.
Cc1onc(NC(=O)NC(=O)c2c(F)cccc2Cl)c1Br	.	.	-1.7%	.	10.9%	.	-2.3%	7.7%
OCCN1CCN(C(=S)NCCc2ccccc2)CC1	27.7%	10.1%	6.4%	?	0.0%	-5.3%	5.8%	-1.2%
CCCCn1c(N)c(N(CCOC)C(=O)CSc2nnc(-c3ccc(C(C)(C)C)cc3)n2N)c(=O)[nH]c1=O	?	.	-3.5%	11.4%	6.1%	.	-0.5%	.
Cc1ccc(C)c(/C=C/C(=O)c2ccccc(=O)c2O)c1	?	-7.3%	?	?	?	-22.2%	3.55µM*	-35.1%
COCCn1nnnc1C(c1cccc(OC)c1OC)N1CCN(C2CCCCC2)CC1 (stereo not drawn)	-1.8%&4.1%	8.2%	-12.4%	4.9%	-33.8%	3.1%	-2.5%	-1.5%
CCOCCCNC(=O)C(c1ccc(Cl)cc1)N(Cc1cccs1)C(=O)CNC(C)=O (stereo not drawn)	-2.0%	4.9%	-5.5%	-11.1%	-17.3%	?	14.8%	3.7%
Cc1cc(C)c2nc(NNC(=O)c3cc(=O)c4ccccc4o3)sc2c1	.	.	-7.8%	.	3.4%	.	-6.7%	4.3%
COc1ccccc1-c1nn2c(=O)cc(CN3CCN(C(=O)Nc4ccc(C)cc4Cl)CC3)nc2s1	.	0.8%	.	9.1%[46.1 µM]	?	-4.6%	.	.
COc1ccc(CCNC(=O)c2ccc(NS(=O)(=O)c3ccc4[nH]c(=O)[nH]c4c3)cc2)cc1OC	17.6%	.	4.0%	13.0%	-13.3%	.	6.9%	-14.0%
CNS(=O)(=O)c1ccc(CCC(=O)N2CCN(c3ccccc3OC)CC2)cc1	.	.	-16.1%	.	?	.	2.6%	10.3%
Cc1nc(N2CCN(C)CC2)c2sc(=S)n(C)c2n1	.	6.3%	-1.9%	.	-3.9%	-5.3%	-12.1%	-4.2%
O=C(O)Cc1coc(-c2ccc(F)cc2)n1	3.9%	5.9%	-10.0%	15.1%	-5.9%	8.5%	10.2%	-4.8%
CN(C1CCCCC1)S(=O)(=O)c1cccc(C#N)c1	3.2%[46.1 µM]	.	9.8%	1.9%	-12.0%	.	-0.4%	-0.9%
CC1SCC(=O)N(CC(=O)Nc2ccc3c(c2)OCO3)C1=O (stereo not drawn)	-1.8%	-3.8%	-1.8%	.	13.1%	10.1%	-1.6%	11.0%
CCOC(=O)C1=C(COC(=O)CNC(=O)c2cccc(C)c2)NC(=O)NC1C (stereo not drawn)	0.0%	.	-4.9%	-3.0%	-14.5%	.	1.2%	.
CN1CCN(C(=O)c2cc(COc3ccccc3)on2)[C@@H](c2ccccc2)C1	.	.	-19.0%	.	37.9%[activator]	.	8.0%	8.7%
CN(C(=O)CSc1nc2ccc(Br)cc2c(=O)n1Cc1ccco1)C1CCS(=O)(=O)C1 (stereo not drawn)	-17.8%	.	-8.0%	-3.5%	-26.9%	.	0.7%	0.1%
CC1=C(C)C(OCCCl)N(c2cc(O)c(Cl)cc2F)C1=O (stereo not drawn)	.	.	12.0%	.	-20.8%	.	1.2%	11.8%
CC(=O)Nc1ccc(C(=O)OCC(=O)Nc2ccc(Cl)cc2C(=O)c2ccccc2)cc1	5.2%	-4.5%	10.7%	?	-29.5%	?	-34.6%	-29.1%
c1ccc(N2CCN(c3nnc(Cc4cccnc4)c4ccccc34)CC2)nc1	16.5%	3.3%	2.1%	0.2%	10µM*	-3.5%	-6.0%	-9.9%
COc1ccc(OC)c(C(=O)Nc2c(O)ccc3ccccc23)c1	5.6%	.	-11.9%	?	19.3%	.	.	.
c1ccc(CN=C2NN=C(c3cc4ccccc4o3)CS2)cc1	?	-15.8%	7.5%	?	0.0%	?	-8.1%	8.0%
O=C(Cc1ccc(Cl)cc1)Nc1cccc(-c2nnc(-c3ccco3)o2)c1	8.5%	-3.9%	14.5%	-14.0%	0.0%	-12.5%	0.6%	5.8%
CCNc1nc(CC)nc2c1oc1ccccc12	-19.4%	-1.3%	-13.2%	2.8%	3.7%	-1.8%	-11.0%	-56.3%
CCC1CN(C(=O)N2CCC(C(=O)NCCN(CC)CC)CC2)c2ccccc2O1 (stereo not drawn)	.	-2.7%	.	-31.0%[46.1 µM]	-6.4%	?	.	.
CCOc1ccc(C(=O)N2CCc3cc(OC)c(OC)cc3C2)cc1OCC	?	4.0%	-3.8%	0.5%	0.0%	28.1%	-0.5%	-11.8%
CNc1nc(Cl)c(SC)c(NCc2ccc(F)cc2)n1	.	.	7.9%	.	0.0%	.	-5.1%	-9.7%
O=C(CSc1ncnc2ccccc12)Nc1ccc2c(c1)OCO2	4.9%	-0.3%	2.1%	.	-0.4%	-13.1%	-1.5%	-71.1%
Cc1ccc(NC(=O)OCc2cn(-c3ccc(Cl)cc3)nn2)cc1	15.2%	7.0%	4.4%	-4.2%	-1.8%	?	-0.4%	-6.5%
CCCCc1ccc(NC(=S)Nc2cccnc2)cc1	-0.4%	-5.5%	0.7%	-0.7%	-6.6%	-3.6%	-8.8%	-3.8%
COc1ccc(C(=O)Nc2ccc(C)cn2)cc1S(=O)(=O)N1CCCc2ccccc21	-29.9%	.	1.4%	?	-23.2%	.	-2.1%	.
Cc1nnc(C)n1/N=C/c1cccn1C	?	5.0%	6.1%	20.6%	0.0%	-6.9%	2.0%	-15.0%[9.22 µM]
CC(C)n1cnc2c(NCc3ccc(S(N)(=O)=O)cc3)nc(NCc3ccc(S(N)(=O)=O)cc3)nc21	.	.	-17.2%	.	-12.6%	.	1.7%	-1.3%
Cc1ccc(N2CC(C(=O)Nc3ccc(S(=O)(=O)Nc4nccs4)cc3)CC2=O)cc1 (stereo not drawn)	13.4%	.	3.4%	-13.2%	13.6%	.	-4.4%	.
O=C(O)C1=C[C@H](c2csc3ccccc23)C[C@H](OCCCCO)O1	.	.	2.8%	.	-18.7%	.	-1.1%	0.3%
COc1ccc(OCc2ccc(/C=N\NC(=O)c3sccc3C)o2)cc1	.	.	-17.7%	.	7.1%	.	-3.3%	15.4%
Cc1ccc(S(=O)(=O)NC(=O)Nc2ccccc2)cc1	-6.6%[14.2 µM]	.	2.8%	16.2%	17.2%	.	1.2%	1.7%
O=CN(Cc1nc2ccccc2[nH]1)c1ccc(C(=O)O)cc1	?	.	-17.0%	24.7%[46.1 µM]	24.1%	.	.	.
CCc1ccc2c(CN3CCN(Cc4ccccc4)CC3)cc(=O)oc2c1	-2.9%[46.1 µM]	.	-19.1%	0.8%	0.0%	.	2.4%	-17.4%

3 entries picked at random from those above, as already listed:
SMILES	MARV entry inh	Cruzain Triton	RE007 growth inh	LASV entry inh	StopGo reporter	Cruzain inh noDet	SARS PLP yeast	NS1 function inh
CC(C)n1cnc2c(NCc3ccc(S(N)(=O)=O)cc3)nc(NCc3ccc(S(N)(=O)=O)cc3)nc21	.	.	-17.2%	.	-12.6%	.	1.7%	-1.3%
Cc1nnc(C)n1/N=C/c1cccn1C	?	5.0%	6.1%	20.6%	0.0%	-6.9%	2.0%	-15.0%[9.22 µM]
CCc1ccc2c(CN3CCN(Cc4ccccc4)CC3)cc(=O)oc2c1	-2.9%[46.1 µM]	.	-19.1%	0.8%	0.0%	.	2.4%	-17.4%

Source: PubChem BioAssay

Hits appear at their usual frequency; about 4.7% have a hit in one of these screens.
